Assay outcomes: PubChem, National Center for Advancing Translational Sciences (NCATS)
PINK1 expr mod: modulators of PINK1 expression; 410,000 compounds, 0.2% hits; Potency, µM (top dose mostly 76.6 µM), for the others: at the highest dose activation (PINK1 increase), usual class: activators; PINK1 immunofluorescence, high-content cytometry, 24 h; AID 624263; active = well fitted activation curve with a large enough effect; inconclusive = small, poorly fitted or top-dose-only effect; inactive = flat fitted curve, though single readings scatter; cell line not stated here;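 further: potency means the concentration at half of the fitted maximal effect; % of control where 0% means no effect; nearly all actives have a fitted effect of over 65% in size; a mitochondrial uncoupler was the plate control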
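Cells are seeded, rested 12 hours, then given compound at five concentrations or DMSO for 24 hours. After fixation, blocking and antibody staining, PINK1 amount and mitochondrial localization are scored; CCCP serves as control.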
Sfp inh: Sfp phosphopantetheinyl transferase inhibition. AID 1490. Q9F4F7. Biochemical Sfp PPTase activity, qHTS. Potency, µM, for the others: max response, negative = inhibition, hits mostly inhibitors. 310,000 compounds, 3.5% hits; active means well fitted inhibition curve with a large enough effect; inconclusive means small, poorly fitted or top-dose-only effect, or another doubt; inactive means no such curve, though single readings can be large or run the other way;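 further: the enzyme is Sfp with the accession as filed and its product quenches rhodamine fluorescence; potency means the concentration at half of the fitted maximal effect; 0% = enzyme reaction without inhibitor and -100% = no enzyme wells; top concentration of the series not given in the record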
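Buffer: 50 mM Hepes-Na pH 7.6, 10 mM MgCl2, 0.01% Nonidet P-40, 0.01% BSA. Enzyme 15 nM, pre-exposed to compound 15 min; substrates then added and fluorescence change tracked over 30 min.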
TRPV1 potentiator: potentiators of human vanilloid receptor 1 (TRPV1); TRPV1-expressing cells, Fluo-8 calcium influx, capsaicin EC20 potentiation; host cell line not named in the record; control for the full effect not named in the record; potentiation, % at 8.33 µM; 320,000 compounds, 0.02% hits; AID 540277; active means potentiation above 80%; inconclusive means 30% to 80%; inactive means below 30%; further: 0% is about no effect
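TRPV1-expressing cells were cultured overnight at 35.5C and loaded with Fluo-8 calcium dye for 40 to 90 min at room temperature. After a 10 s baseline, compound was added and calcium influx was read kinetically for 3 min (ex 480/em 520 nm).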
ClpP mod: qHTS Assay for Activators of ClpP | purified B. subtilis ClpP, FRET peptide cleavage, 20 min | Potency, µM (series often up to 57.5 µM), for the others: at the top dose activity change, negative = active | ATP-dependent Clp protease proteolytic subunit (Bacillus subtilis (strain 168)), P80244 | 340,000 compounds, 1.9% hits; active = well fitted falling curve with a large enough effect; inconclusive = small, poorly fitted or top-dose-only effect; inactive = no such curve, though single readings can be large or run the other way; further: potency means the concentration at half of the fitted maximal effect; the source files actives as falling curves though it sought activators and does not explain the sign; nearly all actives have a fitted effect of over 65% in size; many hits overshoot -100%
Target sequence (P80244 whole entry, looked up): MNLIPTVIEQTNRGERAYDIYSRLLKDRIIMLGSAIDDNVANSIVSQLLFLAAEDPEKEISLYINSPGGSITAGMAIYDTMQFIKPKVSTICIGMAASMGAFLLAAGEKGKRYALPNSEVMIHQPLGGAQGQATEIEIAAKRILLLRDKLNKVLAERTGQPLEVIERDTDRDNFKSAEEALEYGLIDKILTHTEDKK
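FRET quenching reversal measured ClpP activation: 10 microg/mL B. subtilis ClpP at pH 8 with the FRET-FV decapeptide, read at 430 nm after 320 nm excitation. The 20-min minus 0-min signal was scaled between DMSO/no-enzyme wells and ADEP (5.8 microM final).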
TRPML1 inh: blocks the human TRPML1 channel; TRPML1-inducible cells, Ca2+ dye fluorescence, FDSS; active compounds read low; inhibition of EC80 agonist-evoked calcium signal; AID 624415; activity change, negative = inhibition, % (test concentration not listed); 390,000 compounds, 0.02% hits; in the data active means activity change below about -50%; inconclusive means about -30% to -50%; inactive means above about -30%;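 further: stimulus is agonist 54-4 at its EC80 concentration; on the % scale 0 is the no-effect control and ±100 the full control effect; compound concentration not given in the record; the text of the record puts the active cut at -80%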
Target sequence (Q9GZU1 whole entry, looked up): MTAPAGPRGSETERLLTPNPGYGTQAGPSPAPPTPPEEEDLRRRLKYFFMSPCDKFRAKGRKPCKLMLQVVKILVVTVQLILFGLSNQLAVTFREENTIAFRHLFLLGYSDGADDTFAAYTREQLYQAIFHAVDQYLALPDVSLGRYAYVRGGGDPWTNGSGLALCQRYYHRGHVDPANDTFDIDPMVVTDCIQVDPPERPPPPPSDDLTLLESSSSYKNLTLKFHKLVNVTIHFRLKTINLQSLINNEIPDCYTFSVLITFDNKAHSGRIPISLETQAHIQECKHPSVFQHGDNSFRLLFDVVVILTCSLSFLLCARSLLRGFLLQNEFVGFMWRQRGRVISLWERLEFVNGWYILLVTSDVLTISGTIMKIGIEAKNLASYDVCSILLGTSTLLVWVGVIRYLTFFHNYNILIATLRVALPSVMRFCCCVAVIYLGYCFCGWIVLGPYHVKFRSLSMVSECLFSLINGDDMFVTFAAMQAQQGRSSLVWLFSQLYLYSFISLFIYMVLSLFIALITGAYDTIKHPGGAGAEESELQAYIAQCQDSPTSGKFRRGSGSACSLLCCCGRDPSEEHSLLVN
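Calcium fluorescence in TRPML1-DL cells induced overnight with Tet: a 110 s read after compound pin addition, then a 110 s antagonist read after challenge with 54-4 at 4 uM final (EC80).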
Menin MLL FP FL: menin-MLL binding inhibition, fluorescein peptide; FP activity change, % at 61.4 µM; 290,000 tested, under 10 active; Fluorescence polarization, fluorescein-MLL peptide displacement from menin; AID 1766; inconclusive = falling polarisation curve, or a change in total fluorescence; inactive = total fluorescence flat and polarisation flat or rising; no compound was filed as active; the % refers to the polarisation; negative = inhibition;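 further: % of control where 0% means no effect; inhibitors lower the polarisation; unlabelled MLL peptide was the positive control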
TRPML1 agonist: activates the human TRPML1 channel | Q9GZU1 | TRPML1-expressing cells, Ca2+ dye fluorescence, FDSS; host cell line not named in the record; reference of the full effect not given here | activation, % (concentration not given with the values) | 410,000 compounds, 0.12% hits | AID 624414; in the data active = activation above about 50%; inconclusive = about 30% to 50%; inactive = below about 30%; further: 0% is about no effect; the text of the record puts the active cut at 80%
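Tet-induced TRPML1-DL cells, 1,500 per well, cultured overnight, were loaded with a no-wash Ca2+ dye for 45–90 min. Calcium fluorescence was recorded on the FDSS for 110 s after compound addition, before the EC80 agonist (4 uM 54-4) was added.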
The depositor's hits bear a star; ? = inconclusive; / = not tested or not shown; [ ] = another dose, or the depositor's remark.

SMILES	PINK1 expr mod	Sfp inh	TRPV1 potentiator	ClpP mod	TRPML1 inh	Menin MLL FP FL	TRPML1 agonist
CC1(C2CC2)NC(=O)N(CC(=O)N2CCN(c3ccccc3)CC2)C1=O (configuration not stated)	2.0%	/	6	-3.6%	2	/	-0.7
COC(=O)CCC(NC(=O)c1cc(C)oc1C)C(=O)OC (configuration not stated)	1.6%	-7%	?	0.7%	-11	8.5	-0.2
COc1ccc(N2CCN(C(=O)c3ccc(COc4ccc([N+](=O)[O-])cc4)o3)CC2)cc1	2.1%	0%	8	0.5%	12	-2.2	1.5
COc1cc(/C=C/c2cc[n+](C)cc2)ccc1OCC(=O)Nc1ccccc1	-1.5%	15%	2	/	2	/	0.6
CN(Cc1cnn(C)c1)C(=O)C1CCCCC1C(=O)O (configuration not stated)	-0.9%	11%	-18	1.3%	11	2.4	-0.2
Cc1ccc(C(=O)c2oc3ccccc3c2N)cc1	-1.6%	3%	-3	-1.8%	-8	2.3	-1.2
CN(CC(=O)Nc1ccccc1C(F)(F)F)C(=O)CSCc1ccc(Cl)c(Cl)c1	0.9%	/	9	/	7	/	1.5
CCCC(=O)Nc1cc(C(=O)O)ccc1Sc1ccccc1	-0.5%	11%	-13	/	-9	0.2	-0.4
Cc1sc2ncnc(SCC(=O)NC(=O)NCc3ccco3)c2c1C	/	-22%	0	-18%	-5	3.0	1.6
COc1ccc(-n2ccnc2SCC(=O)NO)cc1	0.0%	0%	-2	1.6%	/	3.3	/
CCOC(=O)N1CCC(N(CCN(C)C)C(=S)Nc2cccc(Cl)c2)CC1	1.9%	2%	-10	1.3%	2	3.4	0.9
COc1ccc(CNC(=O)CCc2nc3cccnc3n2Cc2ccc(OC)cc2)cc1	0.1%	/	/	-6.0%	2	/	-0.4
O=C(NC12CC3CC(CC(C3)C1)C2)c1cccc([N+](=O)[O-])c1	0.2%	6%	-21	-1.9%	5	4.4	2.6
CCOc1ccc(/C=C2\C(=O)c3ccccc3OC2c2ccccc2)cc1 (configuration not stated)	7.0%	12%	8	-4.4%	-7	2.4	1.0
C=CCOc1c(Cl)cc(CNCCC)cc1Cl	-0.1%	-5%	12	-1.3%	5	2.8	0.5
O=C(NC1CCCCC1)C(c1ccc(Cl)cc1)N(C(=O)c1ccccn1)c1cccnc1 (configuration not stated)	/	29%	-1	/	/	4.8	/
CSc1ncccc1C(=O)NNC(=O)c1ccc(NS(=O)(=O)c2cccs2)cc1	-1.4%	/	-13	-3.3%	-11	/	0.6
O=C(Nc1ccc(N2CCCCC2)c(Cl)c1)c1ccc2c(c1)OCCO2	0.0%	17%	-2	-3.7%	-13	4.1	2.1
O=C(NCc1ccccc1)c1cc[n+](Cc2ccccc2)cc1	0.9%	-4%	24	/	-4	-5.3	-0.3
COc1ccc(C(=O)O/N=C(\N)c2ccccc2Cl)cc1OC	-3.2%	7%	11	/	15	2.9	-1.1
CC(C)c1ccc(NC(=O)CSc2nc3ccsc3c(=O)n2CCC(=O)O)cc1	0.4%	8%	?	-0.4%	-2	-2.3	-1.2
C=C(C)Cn1c(-c2ccncc2)n[nH]c1=S	-1.1%	?	-8	/	-2	-2.4	-0.4
CS(=O)(=O)NCc1ccc(C(=O)NCCOc2ccccc2)cc1	-0.5%[38.3 µM]	0%	-23	-0.2%	13	4.5	0.0
CC1CC(C)(C)NC(=S)N1CC(=O)N1CCN(Cc2ccc3c(c2)OCO3)CC1 (configuration not stated)	1.1%	9%	5	-4.2%	15	-0.8	-0.3
COc1ccc(-c2c(C)nn3c(N4CCOCC4)cc(C)nc23)cc1OC	2.5%	7%	?	0.4%	-21	1.5	-1.2
COC(=O)C1=NN(c2ccc(C)cc2)C2(S1)SC(C(C)=O)=C(C)N2c1ccccc1 (configuration not stated)	1.3%	-4%	19	-5.4%	18	0.7	1.1
CC1Cc2ccccc2N1C(=O)CSc1ccccn1 (configuration not stated)	-1.1%	/	/	-0.4%	4	/	-0.9
Nc1c(C(=O)O)cnn1-c1ccc([N+](=O)[O-])cc1	0.3%	13%	-2	/	34	0.1	0.2
O=c1[nH]cnc2c1nnn2Cc1ccccc1	1.3%	7%	21	-2.8%	-1	-0.3	-0.9
O=C(O)CC(=O)Nc1ccccc1	-0.6%	12%	8	-0.8%	18	-1.5	-0.8
O=C(O)CCC(=O)NCc1cn(-c2ccccc2)nc1-c1cccc(Br)c1	9.3%	2%	-6	-13%	-19	0.5	0.5
COc1ccc(CCNC(=O)C(C(=O)c2ccc(F)cc2)n2ccccc2=O)cc1OC (configuration not stated)	-2.2%	-6%	3	-1.9%	-13	0.5	-0.2
CCOC(=O)c1cc(-c2ccncc2)nc2c1c(C)nn2-c1ccccn1	-0.8%	11%	4	-9.8%	7	1.0	-0.7
O=S(=O)(c1cccc(Cl)c1)n1c(/C=C/c2ccccc2Cl)nc2ccccc21	0.0%	/	/	4.1%	21	/	2.8
CCC(C(=O)NC(C)(C)C)N(Cc1ccc(OC)cc1)C(=O)c1snc(C(N)=O)c1N (configuration not stated)	0.8%	/	/	-21%	-1	/	-0.3
Cc1cc(NC(=O)COC(=O)CCC(=O)c2ccc(F)cc2)no1	0.4%	2%	3	0.5%	14	4.6	-0.5
COc1cccc(/C=N\NS(=O)(=O)c2ccccc2)c1OC	1.4%	10%	?	-0.9%	-21	/	0.4
Cc1nn(CCCC(=O)NCc2ccccc2)c(=O)c2cc3sccc3n12	1.5%	/	/	-4.0%	19	/	0.7
C/C(CC1CC2=C(CC1(C)C)C(C)(C)CCC2)=N\NC(N)=S (configuration not stated)	6.2%[38.3 µM]	?	-4	1.5%	-13	2.0	1.7
CC(C)NC(=O)N1CC[C@@]2(CCCN(C(=O)c3cccc(F)c3)C2)C1	-0.6%	4%	/	/	/	-2.0	/
Cc1ccc(S(=O)(=O)N2CCOCC2)cc1NC(=O)COC(=O)c1ccco1	-0.3%	/	/	-2.4%	6	/	0.1
O=C(NCc1ccccn1)[C@@H]1CCCN1C(=O)[C@@H]1CCCN1C(=O)c1cccs1	-0.5%	/	/	-0.3%	/	/	0.5
COc1ccc(NC(=O)C2=CC(c3ccc4c(c3)OCO4)=NS(=O)(=O)N2C)cc1	-0.3%	/	/	-0.8%	-6	/	0.3
O=S(=O)(c1ccc(Br)s1)N1CCN(c2ccccc2)CC1	-3.5%[38.3 µM]	-6%	-8	-3.0%	44	-7.3	0.7
CCCc1cc(C(=O)Nc2nccs2)cs1	11%[38.3 µM]	10%	-8	-2.1%	-13	0.9	0.5
CC1(C)C(=O)C=CC(=O)C(C)(C)C(=O)C=CC(=O)C(C)(C)C2=CC=C(O2)C(C)(C)C(=O)C=CC1=O	0.0%	/	/	1.1%	3	/	?
CCOC(=O)c1cccc(NC(=O)Nc2cc(OC)ccc2OC)c1	-1.2%	3%	-4	-3.3%	22	-0.5	2.0
CCCCN(Cc1ccccc1)C(=O)C1CCC(=O)N(CCc2ccccn2)C1 (configuration not stated)	-0.4%	17%	1	-0.2%	-6	/	0.2

Rewritten with values under each structure: 12 of the compounds above.
Each structure is followed by: PINK1 expr mod, Sfp inh, TRPV1 potentiator, ClpP mod, TRPML1 inh, Menin MLL FP FL, TRPML1 agonist
> COc1cccc(/C=N\NS(=O)(=O)c2ccccc2)c1OC
    1.4%, 10%, ?, -0.9%, -21, /, 0.4
> Cc1nn(CCCC(=O)NCc2ccccc2)c(=O)c2cc3sccc3n12
    1.5%, /, /, -4.0%, 19, /, 0.7
> C/C(CC1CC2=C(CC1(C)C)C(C)(C)CCC2)=N\NC(N)=S (configuration not stated)
    6.2%[38.3 µM], ?, -4, 1.5%, -13, 2.0, 1.7
> CC(C)NC(=O)N1CC[C@@]2(CCCN(C(=O)c3cccc(F)c3)C2)C1
    -0.6%, 4%, /, /, /, -2.0, /
> Cc1ccc(S(=O)(=O)N2CCOCC2)cc1NC(=O)COC(=O)c1ccco1
    -0.3%, /, /, -2.4%, 6, /, 0.1
> O=C(NCc1ccccn1)[C@@H]1CCCN1C(=O)[C@@H]1CCCN1C(=O)c1cccs1
    -0.5%, /, /, -0.3%, /, /, 0.5
> COc1ccc(NC(=O)C2=CC(c3ccc4c(c3)OCO4)=NS(=O)(=O)N2C)cc1
    -0.3%, /, /, -0.8%, -6, /, 0.3
> O=S(=O)(c1ccc(Br)s1)N1CCN(c2ccccc2)CC1
    -3.5%[38.3 µM], -6%, -8, -3.0%, 44, -7.3, 0.7
> CCCc1cc(C(=O)Nc2nccs2)cs1
    11%[38.3 µM], 10%, -8, -2.1%, -13, 0.9, 0.5
> CC1(C)C(=O)C=CC(=O)C(C)(C)C(=O)C=CC(=O)C(C)(C)C2=CC=C(O2)C(C)(C)C(=O)C=CC1=O
    0.0%, /, /, 1.1%, 3, /, ?
> CCOC(=O)c1cccc(NC(=O)Nc2cc(OC)ccc2OC)c1
    -1.2%, 3%, -4, -3.3%, 22, -0.5, 2.0
> CCCCN(Cc1ccccc1)C(=O)C1CCC(=O)N(CCc2ccccn2)C1 (configuration not stated)
    -0.4%, 17%, 1, -0.2%, -6, /, 0.2

Continuation:
SMILES	PINK1 expr mod	Sfp inh	TRPV1 potentiator	ClpP mod	TRPML1 inh	Menin MLL FP FL	TRPML1 agonist
CCC(C)NC(=O)Cn1cc(S(=O)(=O)N2CCN(c3ccccc3F)CC2)c2ccccc2c1=O (configuration not stated)	-1.7%	2%	-12	/	-10	-2.3	2.0
Cc1ccc(S(=O)(=O)C2(S(=O)(=O)c3ccc(C)cc3)CCCC2)cc1	1.8%	-4%	4	0.8%	53	0.3	3.2
CCOC(=O)CSc1nc2sc3c(c2c(=O)[nH]1)CCCC3	1.2%[38.3 µM]	6%	23	-1.1%	-14	-0.9	2.3
C[n+]1ccccc1/C=C/c1ccccc1Cl	11%	-36%	-13	/	-11	3.0	-0.5
